PKD1 inh = inhibitors of human PKD1 kinase, biochemical, fluorescence polarization; Serine/threonine-protein kinase D1 (Homo sapiens), Q15139; PKD1 kinase fluorescence polarization assay; inhibition, %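 (about 10 µM by stock and volumes)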; 0.056% of 200,000 active;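 active = inhibition of 50% or more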;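 note: controls were vehicle for no effect and a reference inhibitor for full effect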
Target sequence (Q15139 whole entry, looked up): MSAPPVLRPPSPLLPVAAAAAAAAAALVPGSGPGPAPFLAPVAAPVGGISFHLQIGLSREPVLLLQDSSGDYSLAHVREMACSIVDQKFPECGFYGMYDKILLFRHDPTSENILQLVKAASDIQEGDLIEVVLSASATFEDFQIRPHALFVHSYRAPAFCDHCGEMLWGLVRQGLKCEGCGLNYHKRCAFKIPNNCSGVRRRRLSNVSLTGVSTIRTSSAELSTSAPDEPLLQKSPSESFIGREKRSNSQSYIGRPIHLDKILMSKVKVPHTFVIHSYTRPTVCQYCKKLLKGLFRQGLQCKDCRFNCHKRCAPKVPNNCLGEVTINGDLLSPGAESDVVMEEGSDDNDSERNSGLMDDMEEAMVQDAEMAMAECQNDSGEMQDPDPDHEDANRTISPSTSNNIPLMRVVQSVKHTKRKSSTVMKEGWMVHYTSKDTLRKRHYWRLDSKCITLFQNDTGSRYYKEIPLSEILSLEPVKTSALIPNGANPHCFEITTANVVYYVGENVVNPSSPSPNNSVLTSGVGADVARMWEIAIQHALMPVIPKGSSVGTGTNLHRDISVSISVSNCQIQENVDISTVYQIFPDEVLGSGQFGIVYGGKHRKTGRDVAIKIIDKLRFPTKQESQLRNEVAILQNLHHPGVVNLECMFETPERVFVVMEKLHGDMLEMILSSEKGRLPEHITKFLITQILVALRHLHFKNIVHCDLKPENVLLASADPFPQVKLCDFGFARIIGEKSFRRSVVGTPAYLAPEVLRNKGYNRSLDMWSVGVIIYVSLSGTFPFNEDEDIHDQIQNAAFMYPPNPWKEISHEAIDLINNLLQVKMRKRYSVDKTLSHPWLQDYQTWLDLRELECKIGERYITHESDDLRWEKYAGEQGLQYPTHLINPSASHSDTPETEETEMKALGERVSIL
HSV augment = enhancers of HSV replication in host cells, fold increase, host cell viability | HSV replication augmentation in cells | maximum fold increase | 0.005% of 220,000 active | AID 1956, 2009;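 active = peak rise of 1.5-fold or more in the series; tested in PC3 cells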;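 note: first round at 10 µM; read as green reporter fluorescence; hits show the peak of a series up to 25 µM; 1 = signal of infected wells without compound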
Insulin prom inh = inhibitors of insulin promoter-driven GFP, primary screen, imaging, TRM-6 cells (human fetal islet line), eGFP reporter, cell count; reporter expression induced with tamoxifen; inhibition, % at 2 µM; 0.9% of 130,000 active;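 active = inhibition above the mean plus 3 SD, with well images judged a real hit on visual review, cut at about 60% in these data, passing the limit was not always enough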
RGS16-Gao = modulators of RGS16 binding to Galphao, primary screen, biochemical, human proteins, multiplexed bead flow cytometry; bead-based flow cytometry RGS16-Galphao binding, fluorescence; actives lie on both sides; binding response (% of control), % at 10 µM; 0.38% of 220,000 active; Regulator of G-protein signaling 16 (Homo sapiens) + Guanine nucleotide-binding protein …;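 active = below 25% or above 175%, edge rows of some plates excepted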;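 note: Galphao activated by GDP with aluminum fluoride before binding; 100% = wells without compound and 0% = beads without RGS; some results beyond the cut were filed as inactive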
GALR2 ag = GALR2 receptor agonists, primary screen, cell-based | Galanin receptor type 2 (Homo sapiens), O43603 | GALR2-expressing cells, agonist activation read-out | activation, %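 (tested at 5 µM)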 | 0.48% of 140,000 active | AID 803, 2007;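 active = above mean plus 3 SD of all compounds, about 5% in these data, not always enough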;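 note: 0% = vehicle buffer wells and 100% = reference agonist at full effect; tested in CHO reporter cells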
Insulin prom inh cell count = also measured in Insulin prom inh; calls as there; normalized cell count, %; measured here: cell count, toxicity; reference of the scale not given here;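 cells exposed to compound for 48 h; stained nuclei by imaging scaled within each plate; lower means fewer cells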
HSV augment primary fold = further read-out of HSV augment, marked with its call; fold increase; compound at 10 µM; measured here: primary screen fold increase 10 uM; tested in PC3 cells;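 GFP signal in the first replicate; 1 = infected wells without compound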
* marks the source's active call; other numbers are inactive results; i = inactive; . = not tested or not shown.

SMILES | PKD1 inh | HSV augment | HSV augment primary fold | Insulin prom inh | Insulin prom inh cell count | RGS16-Gao | GALR2 ag
CCCCNC(=O)N1CCN(C(=O)C2CCCO2)CC1 (configuration not stated) | 5 | i | 1 | 10 | 111 | 108 | .
CCOC(=O)c1ccc(Nc2sc(C(=O)c3cccc([N+](=O)[O-])c3)c(N)c2C#N)cc1 | . | i | 0.69 | . | . | 80 | .
COc1ccc(CC(=O)Nc2nc(C)cs2)cc1OC | 4 | i | 1.1 | . | . | 92 | -2.9
Cc1cc(C)c(NC(=O)C2=CCN(S(=O)(=O)c3ccc(F)cc3)CC2)c(C)c1 | -7 | . | . | -2 | 123 | 99 | -3.0
Cc1nc(SC2CC(=O)N(c3cc(Cl)cc(Cl)c3)C2=O)nc2c1CCCC2 (configuration not stated) | -14 | i | 1 | 7 | 133 | 101 | -1.2
NC1=NC[C@H](Cc2ccccc2)N1CCc1cc(C(F)(F)F)cc(C(F)(F)F)c1 | . | i | 0.65 | . | . | 101 | .
CCCCc1nccn1CCn1ccnc1CCCC | -1 | i | 1.2 | -54 | 136 | 106 | -2.0
CCc1ccc(C(O)(c2ccccc2OC)C(CN2CCOCC2)c2ccccc2)cc1 (configuration not stated) | -3 | i | 0.98 | -28 | 63 | 101 | .
CCOc1ccc(/C=N/NC(=O)C(=O)NCc2ccco2)cc1 | -4 | i | 1.1 | . | . | 101 | -0.3
O=C(O)c1ccccc1C(=O)Nc1ccccc1[N+](=O)[O-] | . | i | 1.2 | . | . | 97 | .
CCN(CC)S(=O)(=O)c1ccc(OC)c(NC(=O)c2ccc([N+](=O)[O-])cc2)c1 | -6 | i | 0.89 | . | . | 101 | .
COc1ccc(C(=O)Nc2ccc(S(=O)(=O)Nc3ncccn3)cc2)cc1OC | -2 | i | 1 | 41 | 147 | 99 | .
CC(=O)Nc1ccc(NC(=O)CCCN2C(=O)c3ccccc3C2=O)cc1 | -2 | i | 1 | -18 | 116 | 93 | .
Cc1cccc(C(C)C)c1NC(=O)COC(=O)COc1ccc2c(C)cc(=O)oc2c1 | 8 | i | 1.2 | . | . | 91 | -0.9
COc1cc(C(=O)Oc2ccccc2/C=N/NC(=O)c2ccc(C)cc2)cc(OC)c1OC | -3 | i | 0.91 | 40 | 126 | 71 | -2.4
CC(=O)c1nnn(-c2cccc([N+](=O)[O-])c2)c1C | 2 | i | 0.94 | 47 | 100 | 132 | .
COc1ccc(-c2cn3cccc(C)c3n2)cc1F | 3 | i | 1.1 | . | . | 106 | .
N=c1oc2ccccc2cc1-c1nc2ccccc2c(=O)[nH]1 | -1 | i | 0.84 | . | . | 118 | -2.0
COc1ccc(NC(=O)CN2CCN(c3ccc(F)cc3)CC2)cc1Cl | 5 | i | 0.93 | -10 | 110 | 175 | -2.3
O=C(CSc1nnc(COc2ccccc2F)n1-c1ccccc1)NCc1ccco1 | -10 | i | 0.97 | 53 | 135 | 98 | -2.2

More entries.
SMILES | PKD1 inh | HSV augment | HSV augment primary fold | Insulin prom inh | Insulin prom inh cell count | RGS16-Gao | GALR2 ag
Cc1ccccc1NC(=S)NCC(c1cccnc1)N1CCOCC1 (configuration not stated) | 5 | i | 1.3 | . | . | 124 | 1.5
CC(=O)OCCCn1c(C)[n+](C)c2cc(Cl)c(Cl)cc21 | -5 | i | 0.99 | . | . | 76 | .
CC1CCN(S(=O)(=O)c2cn(C)c(=O)n(C)c2=O)CC1 | -1 | i | 0.89 | . | . | 104 | 0.6
Cn1c(SCC(=O)Nc2ccc3c(c2)OCO3)nnc1-c1cnccn1 | -9 | i | 0.92 | 13 | 169 | 101 | -0.7
CCC(C)OC(=O)C1=C(C)O[C@]23OC(N)=C(C#N)[C@]12C(=O)c1ccccc13 (some centres not stated) | 2 | i | 1.2 | 46 | 95 | 181 | -2.9
COc1ccc(C(=O)C2CCN(C(=S)NCCc3ccc(OC)c(OC)c3)CC2)cc1 | -3 | i | 0.98 | . | . | 99 | .
COc1ccc(C(=O)N2CCc3cc(OC)c(OC)cc3C2c2cccc([N+](=O)[O-])c2)cc1OC (configuration not stated) | -9 | i | 0.96 | . | . | 86 | -3.3
CCOC(=O)N1N=C(CC)CC1(O)C(F)(F)F (configuration not stated) | -1 | i | 1 | 38 | 120 | 99 | -1.8
CCOC(=O)CCNCc1ccc(F)cc1 | -1 | i | 0.92 | . | . | 106 | .
CC(=O)N1CCN(Cc2nc3cc(NS(C)(=O)=O)ccc3n2C)CC1 | -3 | i | 1 | -144 | 84 | 94 | -1.5
CC(NC(=O)c1ccccc1)c1ccc(Br)cc1 (configuration not stated) | 3 | i | 0.98 | 88* | 46* | 102 | .
COC(=O)[C@@H](NC(=O)NCc1cccc(OC)c1)C(C)C | -6 | i | 1 | . | . | 104 | 0.5
C=CCNC(=O)/C(C#N)=C/c1ccccc1Cl | -2 | i | 0.78 | 12 | 43 | 99 | .
CNC(=S)N/N=C1\CC(c2ccccc2)Oc2ccccc21 (configuration not stated) | 11 | i | 0.97 | 11 | 83 | 101 | .
Cc1nc(N2CCOCC2)c2cc(-c3ccccc3)sc2n1 | -7 | i | 1.1 | . | . | 105 | 0.1
O=C(NC(=S)Nc1ccc(N2CCCCC2)c(Cl)c1)c1cccs1 | 3 | i | 1 | -33 | 86 | . | -2.0
C=CCSc1nnc2n(-c3ccccc3OC)c(=O)c3c4c(sc3n12)CCC4 | -3 | i | 0.85 | . | . | 103 | 0.0
O=C(NCc1ccccc1)NC1CCS(=O)(=O)C1 (configuration not stated) | 0 | i | 1.1 | . | . | 98 | .
O=C(N/N=C/c1coc2ccccc2c1=O)c1ccccc1Br | -4 | i | 0.98 | 38 | 73 | 111 | -0.5
O=C(c1ccc(Cl)c([N+](=O)[O-])c1)N(c1ccccn1)c1ccccn1 | -7 | i | 0.87 | -24 | 82 | 109 | 0.1

Part of the list above, reduced to HSV augment and PKD1 inh.
| mol | HSV augment | PKD1 inh |
| --- | --- | --- |
| CC(=O)OCCCn1c(C)[n+](C)c2cc(Cl)c(Cl)cc21 | i | -5 |
| CC1CCN(S(=O)(=O)c2cn(C)c(=O)n(C)c2=O)CC1 | i | -1 |

Remaining list, next part
SMILES | PKD1 inh | HSV augment | HSV augment primary fold | Insulin prom inh | Insulin prom inh cell count | RGS16-Gao | GALR2 ag
Cc1nn(C)c(C)c1NC(=O)C12CC3CC(CC(C3)C1)C2 | -16 | i | 0.99 | -29 | 54 | 112 | 2.1
COc1ccc(-c2cc(C3CC3)nc3sc(C#N)c(N)c23)cc1 | -2 | i | 0.86 | -13 | 92 | 98 | 1.7
O=C(O)/C=C\C(=O)Nc1ccc(N2CCN(c3cccc(Cl)c3)CC2)cc1 | 0 | i | 0.9 | . | . | 103 | .
CS(=O)(=O)c1nc(S(=O)(=O)c2ccc(Cl)cc2)c(NCc2ccccn2)s1 | 1 | i | 1.1 | . | . | 104 | .
COc1cc(NC(=O)Cn2cnc3ccccc3c2=O)c(OC)cc1Cl | 9 | i | 0.9 | . | . | 104 | .
Cc1ccc(Cn2c(=O)sc3ccccc3c2=O)cc1 | 8 | i | 0.9 | 19 | 147 | 91 | -4.0
COC(=O)c1ccc(S(=O)(=O)N2CCC(C(N)=O)CC2)n1C | . | i | 0.84 | . | . | 99 | .
Cc1cccc(Oc2ccc(S(=O)(=O)N3CCCCC3)cc2N)c1 | -2 | i | 0.96 | . | . | 103 | .
CC1CCc2nn(CC(=O)N3CCCCCC3)cc2C1 (configuration not stated) | 5 | i | 0.98 | 60 | 127 | 101 | -0.8
COc1ccc(C(=O)OCn2nnc3ccccc3c2=O)cc1 | 1 | i | 0.93 | 18 | 140 | 97 | .
CCOc1ccc2nc(NC(=O)C(NS(=O)(=O)c3cccc4nsnc34)C(C)C)sc2c1 (configuration not stated) | 9 | i | 0.78 | . | . | 118 | -3.6
c1ccc(-c2csc3nnc(SCc4ccc5c(c4)OCO5)n23)cc1 | -21 | i | 1.1 | . | . | 100 | -2.3
Cc1ccc(Cl)cc1N1CCN(Cc2nnnn2Cc2ccco2)CC1 | -4 | . | . | -36 | 122 | 101 | -1.2
CCOC(=O)N1CCN(C(=S)NC(=O)c2c(-c3c(Cl)cccc3Cl)noc2C)CC1 | 2 | i | 0.95 | . | . | 92 | .
O=C(c1cnn2c(C(F)(F)F)cc(-c3cccs3)nc12)N1CCCC1 | . | i | 1 | . | . | 100 | .
CNc1nc2[nH]c(=O)c3c(c2s1)OC(N)=C(C#N)C3c1ccccc1 (configuration not stated) | -4 | i | 1.1 | . | . | 100 | -0.4
Cn1cnnc1-c1cccc(NC(=O)c2cc(F)c(F)cc2Cl)c1 | -7 | i | 0.92 | 5 | 128 | 107 | .
CCOc1ccc(Nc2nc(Cc3nnc(SCC(=O)NC4CCCCC4)n3C)cs2)cc1 | 7 | i | 0.94 | -42 | 87 | 100 | -2.9
COC(=O)c1c([N+](=O)[O-])c(OC)c(OC)c(OC)c1[N+](=O)[O-] | -5 | i | 1.1 | -8 | 86 | 105 | .
CC(=O)Nc1ccc(SCC(=O)Nc2cc(C)on2)cc1 | -5 | i | 0.91 | . | . | 101 | .

Three of the compounds above, with values under each structure.
Screens in order: PKD1 inh, HSV augment, HSV augment primary fold, Insulin prom inh, Insulin prom inh cell count, RGS16-Gao, GALR2 ag
- O=C(c1cnn2c(C(F)(F)F)cc(-c3cccs3)nc12)N1CCCC1
→ ., i, 1, ., ., 100, .
- CNc1nc2[nH]c(=O)c3c(c2s1)OC(N)=C(C#N)C3c1ccccc1 (configuration not stated)
→ -4, i, 1.1, ., ., 100, -0.4
- Cn1cnnc1-c1cccc(NC(=O)c2cc(F)c(F)cc2Cl)c1
→ -7, i, 0.92, 5, 128, 107, .

Later entries:
SMILES | PKD1 inh | HSV augment | HSV augment primary fold | Insulin prom inh | Insulin prom inh cell count | RGS16-Gao | GALR2 ag
Cc1ccc(OCC(=O)N(c2ccccn2)C2CCCCC2)c(C)c1 | -1 | i | 1 | -17 | 120 | 57 | -0.2
CC(C)NC(=O)c1cc(-c2ccco2)nn1-c1ccc(Cl)cc1 | -9 | i | 0.93 | 3 | 97 | 93 | -1.4
Cc1ccc(S(=O)(=O)N(C)CC(=O)N2CCN(C(=O)c3ccco3)CC2)cc1 | 11 | i | 1.1 | . | . | 102 | -0.9
CCOC(=O)Cn1nc(C)cc1NC(=O)c1cccnc1 | -6 | i | 0.9 | -24 | 99 | 95 | .
CC1CCc2cc(F)ccc2N1C(=O)CCl (configuration not stated) | -7 | i | 1 | -7 | 141 | 99 | .
COCCn1c(=O)[nH]c2cc(C(=O)NCCN3CCN(c4ccccc4)CC3)ccc2c1=O | -3 | i | 0.88 | . | . | 101 | -1.4
COc1ccc(-c2csc(NC(=O)C3CCCCN3S(=O)(=O)c3ccccc3)n2)cc1 (configuration not stated) | -1 | i | 0.95 | 13 | 56 | 93 | -1.7
O=C(COC(=O)Cc1ccccc1F)Nc1ccc(F)cc1F | -4 | i | 1.1 | 53 | 130 | 102 | .
Cc1ccc(NC(=O)CSc2nc3ccccc3c3nc(CCn4cncc4C)nn23)c(C)c1 | 0 | i | 1 | . | . | 99 | 0.9
O=C(c1ccc(=O)oc1)N1CCN(c2ccc(F)cc2)CC1 | . | i | 0.96 | . | . | 93 | .
CCN(CC)c1ccc(-c2nc3cnccc3n2C)cc1 | -8 | i | 0.85 | 3 | 89 | 103 | -0.1
O=S(=O)(c1ccc(F)cc1)c1nc(-c2ccc(F)cc2)oc1NCCN1CCOCC1 | -4 | i | 0.81 | . | . | 109 | -1.2
O=C(COc1ccccc1)Nc1cccc(-c2nc3cc4ccccc4cc3[nH]2)c1 | -4 | i | 0.58 | -60 | 37 | 101 | -1.9
Cc1ccc(NC(=O)c2ccc(F)cc2)nc1 | 3 | i | 1.1 | -8 | 145 | 102 | .
COCCNc1cc(C)nc2c3c(C)cc(C)nc3nn12 | -4 | i | 0.75 | . | . | 99 | -2.6
Cc1ccc(-c2c[n+](CC(=O)c3cccs3)c3n2CCC3)cc1 | . | i | 1 | . | . | 103 | .
Cc1cc(C)n(Cc2ccc(C(=O)O)o2)n1 | -5 | i | 0.95 | . | . | 100 | -1.2
Cc1cc(C)n(Cc2ccc(C(=O)NCc3ccco3)o2)n1 | -10 | i | 1 | 37 | 137 | 103 | -1.0
CCc1ccc(/C=C2\Oc3cc(OS(C)(=O)=O)ccc3C2=O)cc1 | 6 | i | 1.1 | . | . | 104 | 1.2
C=CCc1c(C)nc(SC(C)C)[nH]c1=O | -4 | i | 0.91 | . | . | 112 | -3.2
